hNpr1 antagonist = human Npr1 receptor antagonism; P16066; HEK293 hNpr1 GloSensor cGMP, ANP-stimulated luminescence; Potency, µM (top dose mostly 46.3 µM), without a hit: at the top dose activity change, negative = inhibition, most hits filed as inhibitors; hit rate 1.6% among 76,000; AID 1347048; active = well fitted inhibition curve with a large enough effect; inconclusive = small, poorly fitted or top-dose-only effect; inactive = no such curve, though single readings can be large or run the other way;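 further: nearly all actives have a fitted effect of over 60% in size; nearly all hits also lower the signal before the agonist is added; a reference antagonist and vehicle were the controls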
Target sequence (P16066 whole entry, looked up): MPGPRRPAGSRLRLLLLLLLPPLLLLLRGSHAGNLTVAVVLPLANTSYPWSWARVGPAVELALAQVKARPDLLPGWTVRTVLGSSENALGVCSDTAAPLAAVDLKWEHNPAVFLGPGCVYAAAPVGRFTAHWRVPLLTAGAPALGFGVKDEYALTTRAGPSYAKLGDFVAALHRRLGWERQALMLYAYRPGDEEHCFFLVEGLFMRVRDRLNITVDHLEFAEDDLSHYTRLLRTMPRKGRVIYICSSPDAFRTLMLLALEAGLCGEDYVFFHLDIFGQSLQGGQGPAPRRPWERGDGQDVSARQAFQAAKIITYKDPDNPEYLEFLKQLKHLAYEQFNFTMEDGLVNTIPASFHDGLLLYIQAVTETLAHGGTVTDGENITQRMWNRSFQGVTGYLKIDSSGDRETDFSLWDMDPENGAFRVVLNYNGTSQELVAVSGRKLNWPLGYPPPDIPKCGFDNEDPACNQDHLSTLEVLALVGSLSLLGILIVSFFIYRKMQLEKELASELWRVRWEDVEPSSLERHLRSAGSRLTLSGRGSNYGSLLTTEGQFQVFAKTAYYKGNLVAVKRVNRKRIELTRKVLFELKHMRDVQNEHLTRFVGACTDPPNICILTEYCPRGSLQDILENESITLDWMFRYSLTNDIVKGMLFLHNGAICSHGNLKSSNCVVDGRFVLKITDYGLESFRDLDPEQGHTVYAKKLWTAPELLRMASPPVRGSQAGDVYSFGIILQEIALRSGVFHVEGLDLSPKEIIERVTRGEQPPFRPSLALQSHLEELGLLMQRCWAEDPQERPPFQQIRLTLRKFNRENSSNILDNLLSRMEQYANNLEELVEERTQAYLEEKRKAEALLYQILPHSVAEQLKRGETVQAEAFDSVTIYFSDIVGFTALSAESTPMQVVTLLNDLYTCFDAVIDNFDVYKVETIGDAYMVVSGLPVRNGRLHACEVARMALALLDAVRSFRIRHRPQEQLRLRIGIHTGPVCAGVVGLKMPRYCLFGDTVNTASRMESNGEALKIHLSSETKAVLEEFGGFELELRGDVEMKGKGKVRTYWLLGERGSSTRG
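Compound pre-incubated 30 min at room temperature on GloSensor-loaded HEK293 cells stably carrying hNpr1 and the pGS-40F cGMP biosensor. Stimulation uses hNppA at 0.1 nM final; luminescence is taken at baseline and 20 min post-agonist.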
Starred values were filed as active, the others as inactive; ? = inconclusive; & = joins results of further samples; [ ] = another dose, or the depositor's remark. On the % scale 0 is the no-effect control and ±100 the full control effect; potency means the concentration at half of the fitted maximal effect.

SMILES	hNpr1 antagonist
O=C(NCCc1ccccc1)c1cc2n(n1)CC(c1ccc3c(c1)OCO3)OC2 (stereo not drawn)	?
Cc1noc(C2CC3(CCN(C(=O)c4cccs4)CC3)CN2C)n1 (stereo not drawn)	0.0%
Cc1ccc(S(=O)(=O)N2CCN(C)C3(CCC(=O)N(C)CC3)C2)cc1F (stereo not drawn)	4.2%
O=C(NCc1ccc(OC(F)(F)F)cc1)N1CCc2nc3cc[nH]n3c(=O)c2C1	4.3%
O=C1NCC2(CCCN(C(=O)CCc3ccc(=O)[nH]n3)C2)O1 (stereo not drawn)	0.8%
CCn1cc(S(=O)(=O)N2CCC(c3ncc(C)n3CCOC)C2)cn1 (stereo not drawn)	2.5%
CC(=O)N1CCCC(c2[nH]ccc2C(=O)N2CCc3ccccc32)C1 (stereo not drawn)	0.1%
COCCN1CCC(N2CCN(S(=O)(=O)c3ccc(C(F)(F)F)cc3)CC2)C1=O (stereo not drawn)	1.4%
COc1ccc(CC(=O)N2CCC3(CCCN(CC4CCC4)C3=O)C2)cc1 (stereo not drawn)	-12.1%
CCc1n[nH]c(CC2CCN(C(=O)Nc3ccc4c(c3)OCCO4)CC2)n1	-28.1%
CNC(=O)[C@@H](CC(C)C)N1CCC[C@H]1C(=O)N[C@@H](CO)CC(C)C	10.6%[70.6 µM]
CCOc1ccc(C(=O)N2CCC3(CC2)CN(C2CCC2)CC3COC)cc1 (stereo not drawn)	-19.8%

Looked up by structure from the list above:
SMILES	hNpr1 antagonist
Cc1noc(C2CC3(CCN(C(=O)c4cccs4)CC3)CN2C)n1 (stereo not drawn)	0.0%
CCn1cc(S(=O)(=O)N2CCC(c3ncc(C)n3CCOC)C2)cn1 (stereo not drawn)	2.5%

Following part
SMILES	hNpr1 antagonist
Fc1ccccc1-c1noc(NCc2ccccc2)n1	-7.9%
CC(C)=CCC1(CO)CCCN(CC(=O)N2CCCCCC2)C1 (stereo not drawn)	4.8%
CS(=O)(=O)N1CCCCCCNC(=O)[C@@H]2C[C@@H](c3nc(-c4cccnc4)no3)C[C@@H]21	4.2%
O=C1[C@@H]2C[C@@H](CN2Cc2ccccn2)Oc2ccccc2N1Cc1ccccc1	?
O=C(CC1CCCCN(Cc2ccccc2)C1=O)NCc1ccc(F)cc1 (stereo not drawn)	-14.0%
OCc1ccc(CNC2(Cc3cc(COc4ccccc4)on3)COC2)o1	0.3%[70.6 µM]
Cc1ccc(C2Cn3cnc(C(=O)N4CCC(C(=O)NC5CCCCC5)CC4)c3CO2)cc1 (stereo not drawn)	0.4%
CN(C)[C@@H]1CN(C(=O)c2ccncc2)CCC1(O)c1ccccc1 (stereo partly drawn)	-3.2%
CC(C)N1C[C@H](O)C[C@H]1c1nnc2n1CCN(C(=O)c1ccoc1)CC2	-0.7%
COc1ccc(-c2noc([C@@H](C)N(C)C)c2C(=O)O)cc1	9.9%[70.6 µM]
O=C(CCC[C@@H]1[C@H]2CCCN3CCC[C@@H](CN1C(=O)c1ccccc1)[C@@H]23)Nc1ccc(F)cc1F	-9.2%
COc1cccc(CN2CCCC(C(=O)NCc3ccccc3)CCNC(=O)CC2)c1 (stereo not drawn)	0.2%
Cc1ccc(C(=O)N2CCC3(CC2)NC(=O)N(c2cccc(Cl)c2)N3)c(C)c1	0.0%
O=C(c1ccnc(-c2nnc3ccc(N4CCOCC4)nn23)c1)N1CCCCC1	0.0%[70.6 µM]
COc1cc(CN2CCC(C)(NC(C)=O)CC2)cc(-c2c(C)noc2C)c1	-2.6%[70.6 µM]
O=C1CO[C@H]2CCN(Cc3ccc4[nH]ccc4c3)CC[C@@H]2N1Cc1ccc(O)cc1	-4.3%[70.6 µM]
COc1cccc(CN2CCc3c(cc(C(=O)Nc4cccc(C)c4C)n3C)C2)c1	5.9%
COc1cccc(CN2Cc3nc(OCc4ccc(F)cc4)ccc3OCC2=O)c1	?
C[C@H]1CCCN1C(=O)c1nnc(COc2ccc(C#N)cc2)n1-c1cccnc1	-4.4%[70.6 µM]
CC(=O)N1CCC(N2C[C@@H]3C[C@H]2C(=O)N(Cc2ccc(OC(F)(F)F)cc2)c2ccccc2O3)CC1	-1.4%
O=C(NC1CCNCC1)C1CCN(c2nc(-c3ccccc3)nc3c2CCC3)CC1	3.0%
CN1CCCCC1COc1ccc2c(n1)CN(Cc1ccccc1F)C(=O)CO2 (stereo not drawn)	-5.2%[70.6 µM]
Cc1nc(C2(C)CCN(C(=O)c3cnccn3)CC2)no1	6.4%
COC(=O)CC[C@H]1CNC(=O)[C@@H]2[C@@H](CCN2S(C)(=O)=O)N1C	-1.7%[70.6 µM]
O=C(c1ccc2ccccc2n1)N1CCc2nnc(CCc3ccccc3)n2CC1	0.2%
O=C1CCCN1CC(=O)N1CCC[C@H](n2c(=O)n(CC3CC3)c3cccnc32)C1	-3.2%
Cc1nnc2n1CCC(N(C)C(=O)c1ccc3ccccc3n1)CC2 (stereo not drawn)	1.2%
CN(C)Cc1nnc(C2CC(NC(=O)c3n[nH]c4c3CCCC4)C2)n1C (stereo not drawn)	-2.6%&7.5%
CC(C)CCN1CCC(O)(c2csc(CN(C)Cc3cccnc3)n2)CC1	-0.2%[70.6 µM]
O=C(c1ccc2[nH]ccc2c1)N1CCCN(c2cc(-c3ccc(Br)cc3)[nH]n2)CC1	4.47µM*
COc1cccc(COC2CN(C(=O)CCn3nccc3C)CC(=O)N(Cc3ccccn3)C2)c1 (stereo not drawn)	-0.7%
CCc1ccccc1NC(=O)CN(C)C(=O)C1CCN(c2cnn(Cc3ccccc3)c(=O)c2)C1 (stereo not drawn)	-9.9%
CNC(=O)[C@@H]1CN(C(=O)CCc2nc3ccccc3s2)C[C@H]1c1nc(C)no1	0.1%
O=C(Cc1c[nH]c(=O)[nH]c1=O)N1C[C@@H](CN2CCOCC2)[C@@H](CO)C1	-0.7%
CCc1nncn1C1CCN(S(=O)(=O)c2cc(C)ccc2C)CC1	-10.6%
Cc1ccc(C(=O)N2CCc3sc(C(=O)NCc4ccc(F)cc4)cc3C2)cc1	-14.5%
Cc1ccc(NC(=O)N2CC(N(Cc3cccnc3)S(C)(=O)=O)C2)cc1C	3.9%
O=C(c1cnco1)N1CCc2nn(CC3CC3)c(=O)n2CC1	-0.1%
CN1CCN(C(=O)[C@@H]2CCC[C@@H](NCc3cnn(C)c3)CN(C)C(=O)C2)CC1	-1.2%[70.6 µM]
CCn1cc(S(=O)(=O)N2CCCC(c3nnnn3-c3ccccc3)C2)cn1 (stereo not drawn)	1.0%
N#Cc1cccc(C(=O)NC2CCN(C(=O)N3CC4CC(C3)[C@H]3CCCC(=O)N3C4)CC2)c1 (stereo partly drawn)	0.2%
CCCNC(=O)Cn1ccn2nc(-c3ccccc3)c(CO)c2c1=O	0.9%
COc1cccc(OC2CN(C(=O)c3[nH]c4c(C)cc(C)cc4c3C)C2)c1	2.0%
O=c1[nH]c(N2CCOCC2)nc2c1CCN(Cc1ccc(F)cc1Cl)CC2	5.0%
CCC(=O)N(C1CCOCC1)C1CCN(S(=O)(=O)c2ccc(F)cc2)CC1	1.7%
O=C1CCN(Cc2cccnc2)CCCC(C(=O)NCCC2=CCCCC2)CCN1 (stereo not drawn)	-0.6%
COc1ccc(-c2nnc3n2CCN(C(=O)C2CC2)C3)cc1	15.6%[70.6 µM]
CCN(Cc1nc(C)no1)C(=O)CC1COCCN1C(=O)c1ccco1 (stereo not drawn)	2.8%
CN1C[C@@H](NC(=O)c2ccc(C#N)cc2)C[C@H]1c1nc(Cc2ccccc2)no1	-5.5%[70.6 µM]
Cc1cc(C(=O)N2CCC(=O)N(Cc3ccc(F)cc3)C(C(C)C)C2)on1 (stereo not drawn)	0.6%
Cc1noc(C)c1CCC(=O)NC1CCCc2c1[nH]c1ccccc21 (stereo not drawn)	-9.0%
COc1ccc(NC(=O)N2CCCC(Cn3c(C4CC4)nc4cccnc43)C2)cc1Cl (stereo not drawn)	-9.8%
CC(=O)c1cccc(NC(=O)Cn2ccn3nc(-c4ccccc4)c(CO)c3c2=O)c1	-0.2%
CCn1cnnc1-c1nn(C)c2c1CN(C(=O)CCc1ccc(OC)cc1)CC2	8.7%
O=C(c1ccc(OC2CCN(C(=O)c3cccs3)CC2)nc1)N1CCOCC1	0.4%
Cc1cnc(CCNS(=O)(=O)c2cn(C)cn2)n1CC1CC1	1.6%
Cc1ccc(C(=O)NC2CCN(c3cc(-c4ccccc4)[nH]n3)C2)cc1C (stereo not drawn)	-14.3%
O=C(NCc1ccc(F)cc1)c1nc(-c2cccc(F)c2)c2cnccn12	1.6%
CN(Cc1ccc(F)cc1)C(=O)Cc1ccccn1	10.4%[70.6 µM]
N#Cc1cccc(-c2cn3c(n2)N(C(=O)COc2ccccc2)CCC3)c1	-12.2%

Going on with the list.
SMILES	hNpr1 antagonist
CCn1cc(S(=O)(=O)N2CCc3nn(CC4CC4)c(=O)n3CC2)cn1	0.0%
Cc1cnc(CC2CCN(S(=O)(=O)c3cn(C)cn3)C2)n1C(C)C (stereo not drawn)	-2.7%
CCCC1c2nccn2CCCN1C(=O)c1c(C)noc1C (stereo not drawn)	-0.8%
COCCn1cnnc1CNc1cc(C)nc2c(C)c(C)nn12	3.3%
Cn1nccc1C(=O)N1CCC2(CC1)OC(=O)N(CCOc1ccccc1)C2(C)c1cccnc1 (stereo not drawn)	2.4%
CCc1nc2c(c(-c3ccc(Cl)cc3)n1)CCN(C(=O)c1ccccn1)CC2	-15.5%
Cc1ccc(C(=O)N2[C@@H]3CC[C@H]2CC(NC(=O)c2ccncc2)C3)s1 (stereo partly drawn)	1.1%
Cc1cc2nc3n(c(=O)c2n1CC(=O)NCCc1ccc(Cl)cc1)CCC3	-0.9%
CC(C)NC(=O)CCc1cc2n(n1)CCN(C(=O)[C@H]1CCCO1)C2	-2.8%
Cc1oc(C(O)c2cccc(O)c2)nc1C(=O)NCc1ccccc1 (stereo not drawn)	-7.3%[70.6 µM]
CN(C)C[C@@H]1CN(Cc2ccccn2)C[C@H]1NC(=O)c1ccc(Cl)s1	-1.0%
Cc1ccc(F)c(NC(=O)C2CN(S(=O)(=O)C3CC3)CC23CCCCC3)c1 (stereo not drawn)	-13.8%
Cc1cccc(-c2ccc(C(=O)NCCCn3ccnc3C(C)C)cn2)c1C	-15.9%
Cc1cc(S(=O)(=O)NCC2CCOCC2)ccc1F	-16.8%
CC(=O)NC[C@H]1OC[C@@H](NC2CCC2)[C@@H]1O	2.3%[70.6 µM]
CN1CCN(c2nc3c(c(=O)[nH]2)CCN(Cc2cc(Cl)ccc2F)CC3)CC1	-1.5%
COC[C@@H]1[C@H](NC(=O)c2csc(C)c2-c2ccccc2)[C@@H]2CCO[C@H]12	0.0%
Cc1noc([C@@H](C)NC(=O)C2CC2)c1C(=O)O	-1.4%[70.6 µM]
Clc1ccc(CCNc2ncncn2)c(Cl)c1	?
CCn1cc(S(=O)(=O)N2CCCC(Cc3nncn3CC3CC3)C2)cn1 (stereo not drawn)	6.6%
O=C(NCCc1ccncc1)C1CN(S(=O)(=O)c2ccccc2)CC12CCOCC2 (stereo not drawn)	-7.5%
Cc1ccn2c(=O)cc(CN3CC[C@@H]4[C@@H](CCC(=O)N4CCC(C)C)C3)nc2c1	-1.4%
Cc1cccc(C(=O)N2CCCCCCNC(=O)[C@@H]3CCC[C@@H]32)c1	-2.9%
Cc1nc(N2CCC(C(=O)NCc3ccc4c(c3)OCO4)CC2)cc(C(F)(F)F)n1	?
CS(=O)(=O)N(C1CC1)C1CCOC2(CCN(C(=O)Nc3ccccc3F)CC2)C1 (stereo not drawn)	-14.8%
COCCc1noc(C2CNC2)n1	-20.5%
COc1ccc(C2Cn3nnc(-c4noc(CCC5CCCC5)n4)c3CO2)cc1 (stereo not drawn)	2.0%
OC(COc1ccccc1CNC1(c2ccccc2)CC1)CN1CCCCC1 (stereo not drawn)	0.0%
O=C(Nc1ccccc1)c1cc2n(n1)CC(c1ccc(Cl)cc1)OC2 (stereo not drawn)	12.6µM*
CNC(=O)CCn1ncc2cc(OCc3ccccc3-c3cccc(CO)c3)ccc21	?
Cc1cccc(CNc2ccc3nnc(C)n3n2)c1	-4.8%
O=c1c2c(nc3cc[nH]n13)CCN(S(=O)(=O)c1ccc3c(c1)CCC3)C2	-6.1%
COc1ccc(CN(C)Cc2ccc(F)cc2)cc1	3.0%[70.6 µM]
CCC1=C(C(=O)OC)C(c2ccc(Cl)cc2)N2C(CC(=O)N3CCOCC3)=CSC2=N1 (stereo not drawn)	?
COc1ccc(N2C(=O)CSC23CCN(C(=O)Nc2ccc([N+](=O)[O-])cc2)CC3)cc1	-3.7%
C[C@H]1[C@@H]2[C@@H](O)C([C@H](C)C(=O)NC3CCCCC3)CC[C@@]2(C)CC[C@@H]1NC(=O)C1CC1 (stereo partly drawn)	4.5%[70.6 µM]
COc1ccc(C(=O)N2C[C@@H](Oc3cccnc3)C[C@H]2C(=O)NC2CC2)c(OC)c1	0.2%
COc1ccc(-c2cc(N3CCC(NC(=O)c4ccccc4Cl)C3)n[nH]2)cc1 (stereo not drawn)	-0.3%
COCCNC(=O)[C@@H]1C[C@H](Oc2cccnc2)CN1C(=O)COc1ccc(F)cc1	3.8%

Compound activity: PubChem BioAssay, National Center for Advancing Translational Sciences (NCATS)

Some of the compounds tested; count on the stated rates, not on these rows.
